Source: PubChem BioAssay
Sfp inh: inhibitors of Bacillus subtilis Sfp phosphopantetheinyl transferase | 3.5% of 310,000 active | Biochemical Sfp PPTase activity, qHTS | Potency, µM, for inactives: max response, negative = inhibition, actives largely listed as inhibitors; active = well fitted inhibition curve with a large enough effect; inconclusive = small, poorly fitted or top-dose-only effect, or another doubt; inactive = no such curve, though single readings can be large or run the other way;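 also: the enzyme is Sfp with the accession as filed and its product quenches rhodamine fluorescence; potency is read from the fitted curve at half-maximal effect; 0% = enzyme reaction without inhibitor and -100% = no enzyme wells; top concentration of the series not given in the record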
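Compounds were incubated with enzyme (final 15 nM) for 15 min at room temperature before substrate addition started the reaction. Fluorescence at 525 nm excitation, 598 nm emission was recorded immediately and after 30 minutes.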
gsp ag: activates gsp, the McCune-Albright syndrome mutation. gsp mutant cells, cAMP HTRF, 30 min; control for the full effect not named in the record. Potency, µM (highest dose often 76.9 µM), for inactives: top-dose activation (cAMP increase), hits mostly activators. 0.13% of 340,000 active; active = well fitted activation curve with a large enough effect; inconclusive = small, poorly fitted or top-dose-only effect, or another doubt; inactive = no such curve, though single readings can be large or run the other way; cell line not stated here;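 also: phosphodiesterase inhibitor Ro 20-1724 added with compounds to block cAMP breakdown; potency is read from the fitted curve at half-maximal effect; nearly all actives have a fitted effect of over 60% in size; about a fifth of the inactives were tested at one dose only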
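Cells in DMEM/10% FBS with G418 were pretreated with compounds in DMSO plus […] (300 uM stock) for 30 min at 37C. cAMP was measured by HTRF (cAMP-d2 plus anti-cAMP antibody-K) after 30 min at room temperature.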
Menin MLL FP FL: inhibitors of human menin-MLL interaction, wild-type MLL peptide | Fluorescence polarization, fluorescein-MLL peptide displacement from menin | FP activity change, % at 61.4 µM | 290,000 tested, under 10 active; inconclusive = falling polarisation curve, or a change in total fluorescence; inactive = total fluorescence flat and polarisation flat or rising; no compound was filed as active; the % refers to the polarisation; negative = inhibition;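 also: % of control where 0% means no effect; inhibitors lower the polarisation; unlabelled MLL peptide was the positive control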
ClpP mod: qHTS Assay for Activators of ClpP. purified B. subtilis ClpP, FRET peptide cleavage, 20 min. Potency, µM (highest dose often 57.5 µM), for the others: at the top dose activity change, negative = active. 1.9% of 340,000 active; active = well fitted falling curve with a large enough effect; inconclusive = small, poorly fitted or top-dose-only effect; inactive = no such curve, though single readings can be large or run the other way; also: potency is read from the fitted curve at half-maximal effect; the source files actives as falling curves though it sought activators and does not explain the sign; nearly all actives have a fitted effect of over 65% in size; many hits overshoot -100%
Target sequence (P80244 whole entry, looked up): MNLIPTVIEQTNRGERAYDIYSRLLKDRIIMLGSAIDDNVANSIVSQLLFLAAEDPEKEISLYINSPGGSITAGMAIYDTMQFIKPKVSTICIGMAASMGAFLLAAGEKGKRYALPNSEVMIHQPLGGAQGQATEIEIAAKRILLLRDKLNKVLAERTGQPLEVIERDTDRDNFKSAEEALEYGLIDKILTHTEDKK
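Buffer: 100 mM Tris/HCl pH8, 100 mM KCl, 0.05% low protease BSA, 2.5% glycerol, 0.01% Tween-20. ClpP 10 microg/mL final; 20 min RT; delta FRET normalized to ADEP and DMSO controls.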
gsp antag: gsp mutant antagonism; AID 624288; Potency, µM (doses to about 76.9 µM), inactives show at the top dose activity change, negative = inhibition, usual class: inhibitors; 0.4% of 340,000 active; gsp-mutant cells, cAMP HTRF, 30 min; control for the full effect not named in the record; active = falling curve of any shape with a large fitted effect; inconclusive = falling curve, mostly with a smaller effect; inactive = flat or rising curve; cell line not stated here;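 also: intracellular cAMP measured with PDE inhibitor Ro 20-1724 present during compound exposure; potency is read from the fitted curve at half-maximal effect; % is scaled to controls: 0 for no effect and ±100 for the full control effect; nearly all actives have a fitted effect of over 65% in size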
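HTRF cAMP measurement after 30 min RT detection following 30 min, 37C compound treatment alongside […] (added as 300 uM solution) in G418-selected cells seeded at 2000/well and grown 16–24 h.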
PINK1 expr mod: PINK1 expression modulation | PINK1 immunofluorescence, high-content cytometry, 24 h | Potency, µM (titrated, usually from 76.6 µM), for the others: top-dose activation (PINK1 increase), most hits filed as activators | 0.2% of 410,000 active | AID 624263; active = well fitted activation curve with a large enough effect; inconclusive = small, poorly fitted or top-dose-only effect; inactive = flat fitted curve, though single readings scatter; cell line not stated here;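 also: potency is read from the fitted curve at half-maximal effect; % of control where 0% means no effect; nearly all actives have a fitted effect of over 65% in size; a mitochondrial uncoupler was the plate control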
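PINK1 protein level read as immunofluorescence by microplate cytometer in a fixed, stained stable cell line after 24 h exposure to five compound concentrations, with CCCP as control.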
D2 agonist: agonists of human D2 dopamine receptor (beta-arrestin); P14416; activation, % (test concentration not listed); 0.084% of 360,000 active; DiscoveRx PathHunter D2 beta-arrestin, luminescence, 90 min; 100% = 57 uM dopamine signal; AID 624465; in the data active = activation above about 40%; inconclusive = about 15% to 40%; inactive = below about 15%; also: compound concentration not given in the record; the text of the record calls up to 30% inactive
Target sequence (P14416 whole entry, looked up): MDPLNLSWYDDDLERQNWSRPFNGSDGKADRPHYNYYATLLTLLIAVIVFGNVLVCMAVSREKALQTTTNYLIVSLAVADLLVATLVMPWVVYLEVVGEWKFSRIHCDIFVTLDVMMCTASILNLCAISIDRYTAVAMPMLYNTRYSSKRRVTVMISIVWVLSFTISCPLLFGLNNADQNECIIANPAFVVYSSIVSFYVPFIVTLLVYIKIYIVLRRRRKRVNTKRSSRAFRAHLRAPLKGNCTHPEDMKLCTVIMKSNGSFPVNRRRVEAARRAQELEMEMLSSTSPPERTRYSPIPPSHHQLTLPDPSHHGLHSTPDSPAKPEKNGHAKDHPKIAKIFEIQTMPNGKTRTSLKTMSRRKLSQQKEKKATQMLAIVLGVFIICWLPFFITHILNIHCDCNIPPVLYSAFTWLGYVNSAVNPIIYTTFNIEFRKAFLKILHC
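Agonist mode: compounds alone added to overnight-plated D2 PathHunter cells for 90 min at 37 C, with 57 uM final dopamine (EC100) defining full response. Beta-arrestin recruitment detected by chemiluminescent reagent, read after 1 h at ambient temperature.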
Starred values were filed as active, the others as inactive; u = inconclusive; x = no result given; [ ] = dose if it differs, or a comment. Outcome played no part in choosing rows. Share with any hit: about 5.1%.

smiles	Sfp inh	gsp ag	Menin MLL FP FL	ClpP mod	gsp antag	PINK1 expr mod	D2 agonist
CSc1ccccc1C(=O)C1CCCN(Cc2cnn(-c3ccccc3)c2)C1 (stereo unspecified)	-7%	1%[15.4 µM]	2.6	x	1%	0.8%	1.6
COc1ccc(N(C(=O)c2ccco2)C(C(=O)NC2CCCC2)c2ccc(C)cc2)c(OC)c1 (stereo unspecified)	14%	-4%[15.4 µM]	0.7	-2.8%	-7%	5.2%	-12
COc1ccc(NC(=O)c2cc(-c3ccc(F)cc3OC(C)C)n[nH]2)c(OC)c1	x	x	x	-9.5%	x	0.3%	-2.3
CCCCCC1=CCC/C1=N\NC(=O)c1ccc2c(c1)OCO2	11%	7%[15.4 µM]	0.1	x	-42%	3.9%	1.3
O=C(CSc1nncn1-c1cccnc1)Nc1ccccc1[N+](=O)[O-]	-5%	-10%	x	x	2%	-1.4%	-4.8
Cc1ccccc1OCC(=O)OCC(=O)Nc1cc(S(=O)(=O)N2CCCCC2)ccc1Cl	x	-33%[inhibitor]	x	1.2%	4%	2.3%	-3.6
CC1=NCCN1S(=O)(=O)c1cc([N+](=O)[O-])ccc1Cl	14%	-5%[15.4 µM]	2.6	x	8%	2.0%	2.0
COc1ccc(N=Nc2c(-c3ccc(OC)cc3)[nH]oc2=O)cc1	24%	-9%[15.4 µM]	u	0.8%	-11%	12%	-1.3
COc1ccc(C(=O)c2ccc(Br)cc2)c2ccccc12	20%	-9%	1.0	-2.2%	14%	5.9%	-5.0
O=C(CSc1nccn1Cc1ccccc1)Nc1ccccc1	8%	-14%	x	2.1%	-6%	2.2%	-3.2
Cc1cc2c(=O)n(CC(=O)N3CCN(c4ccc(F)cc4)CC3)cnc2s1	6%	-4%	-2.0	-0.6%	2%	2.1%	-0.4
COc1ccc(S(=O)(=O)Cc2ccc(C(=O)N3CCN(c4ccccn4)CC3)o2)cc1	-8%	-13%	6.1	-9.2%	12%	3.1%	-1.2
Cn1c(C(=O)N2CCCC(C(=O)NCCCSC3CCCCC3)C2)cc2sccc21 (stereo unspecified)	9%	18%	1.6	2.2%	u	13%	0.9
CCn1c(NC(=O)c2cccc(Cn3cc(Cl)cn3)c2)nc2ccccc21	21%	18%	0.8	77%	-17%	18%	-1.6
O=C(O)/C(=C\c1ccc(Br)cc1)c1ccc(S(=O)(=O)N2CCCCC2)s1	20%	1%[15.4 µM]	3.4	x	-7%	2.9%	-4.4
Cc1nn(C)c(C)c1S(=O)(=O)Nc1ccc2c(c1)OCO2	1%	u	3.7	-1.8%	13%	-0.2%	-0.8
CSc1nc2nc3c(cc2c(=O)n1-c1ccccc1C)CCCC3	-4%	14%[15.4 µM]	-11	x	-20%	8.1%	0.5
O=C(CN1CCN(C2CCCCC2)CC1)Nc1cccc2ccccc12	79µM*	15%[15.4 µM]	-1.0	-2.3%	12%	0.4%	-5.6
COc1ccc(-c2cc(C(=O)NC(Cc3c[nH]c4ccccc34)C(=O)O)c(C)o2)cc1OC (stereo unspecified)	35µM*	17%	4.4	2.2%	-8%	-0.2%	0.7
COC(=O)Cc1cc(=O)oc2c(C)c(O)ccc12	11%	42%	0.1	16µM*	6%	u	2.5
COC(=O)COn1c(SCC(=O)OC)nc2ccccc2c1=O	16%	9%	1.9	-2.4%	0%	0.4%	-2.4
O=C(NC1CCCCC1)C1CCC(CNS(=O)(=O)c2cccc3nsnc23)CC1 (stereo unspecified)	12%	26%	-3.1	-1.9%	-24%	2.4%	-6.4
Cn1nc(C(=O)OCC(=O)Nc2ccc(F)cc2Cl)c2ccccc2c1=O	x	3%[15.4 µM]	x	1.5%	1%	2.3%	0.9
CCNc1nc(NCC)n2c(SCC(=O)Nc3c(C)cccc3C)nnc2n1	x	5%	x	0.8%	16%	4.4%	-4.1
COc1cc(CNCc2ccccn2)ccc1OCc1c(Cl)cccc1Cl	40µM*	-12%	-2.4	1.0%	-1%	-4.9%[38.3 µM]	-6.2
Fc1ccccc1COc1ccc2ccccc2c1CNc1nn[nH]n1	-4%	u	-1.2	x	-8%	2.1%	0.1
O=C(OCc1csc(-c2ccccc2)n1)c1ccccc1O	-7%	9%[15.4 µM]	-4.5	x	x	0.4%	4.0
O=C1/C(=C/c2cccc([N+](=O)[O-])c2)CSc2ccc(Cl)cc21	-11%	4%[15.4 µM]	2.4	-1.1%	3%	5.2%	1.0
Cc1cccc(NC(=O)CSc2nc3nc(C)cc(C)c3c(=O)[nH]2)c1	3%	30%	0.9	-3.6%	-5%	x	1.8
COc1ccc2c(c1)nc(SCC(=O)C(C)(C)C)n2C	56µM*	2%	-2.6	-2.4%	-2%	-0.4%[38.3 µM]	-0.8
COc1ccc(CNC(=O)CSc2cccc3cccnc23)cc1	-5%	-2%	5.0	x	-5%	-2.0%	0.7
COc1ccc(CCN(C)C(=O)c2ccc(S(=O)(=O)Nc3ccccc3C)cc2)cc1OC	8%	-7%	x	-0.3%	-4%	-1.1%	-0.7
Cc1occc1C(=O)N1CCN(S(=O)(=O)c2ccc(F)cc2)CC1	x	-2%	x	-0.4%	5%	-0.4%	0.8
COc1ccc(NC(=O)Cn2nnc(-c3ccccc3NS(=O)(=O)c3ccccc3)n2)cc1	29%	-43%[inhibitor]	6.6	-0.7%	-11%	3.2%	0.5
COc1ccc2[nH]c(=O)c(CN(CC3CCCO3)S(=O)(=O)c3ccccc3F)cc2c1 (stereo unspecified)	18%	2%	0.4	x	-7%	2.9%	12
COc1ccc(C(=O)NC(Oc2ccccc2)C(Cl)(Cl)Cl)cc1 (stereo unspecified)	15%	10%	1.6	-3.6%	4%	18%	-0.5
CCOC(=O)CC(=O)CSc1nc(-c2cccnc2)ccc1C#N	9%	35%	3.7	-9.5%	2%	x	-4.0
Cc1nn(S(=O)(=O)c2ccc(Br)cc2)c(C)c1S(=O)(=O)N1CCOCC1	15%	-5%	x	x	8%	2.5%	0.5
CC(C)c1ccc(O)c(N)c1	11µM*	0%	4.0	-3.0%	1%	0.0%	9.2
OCCNCC12CC3CC(CC(C3)C1)C2	14%	1%[15.4 µM]	-0.7	x	-14%	2.2%	-1.5
Clc1ccc(-c2nn3c(-c4ccccc4)nnc3s2)cc1	8%	20%	0.1	5.4%	-3%	u	-2.7
Cc1ccc(-n2nnnc2CNC(=O)C2CC(=O)N(c3ccc(F)cc3)C2)cc1C (stereo unspecified)	x	-4%	x	0.1%	-1%	-3.5%	0.9
O=C(Nc1ccc(N2CCOCC2)cc1)c1cccc2c(Br)cccc12	6%	7%[15.4 µM]	-3.6	-0.8%	8%	12%	2.7
Cc1ccc(CNC(=O)c2cc(-c3ccccc3)nn2CC2CC(c3cccc([N+](=O)[O-])c3)=NO2)cc1 (stereo unspecified)	x	-4%	x	-0.5%	-9%	-0.2%	-0.5
Cc1ccc(NC(=O)Nc2ccc(Cl)cc2)c(Br)c1	25%	-8%	7.3	0.5%	-10%	6.2%	-3.9
O=C(O)c1ccc(NC(=O)c2cn(-c3ccccc3)nc2-c2ccc(F)cc2)cc1	6%	-13%[15.4 µM]	-0.5	x	u	-1.9%	1.2
CC(=O)Nc1ccc(C(=O)CSc2nnc(Cn3nnc4ccccc43)n2C)cc1	4%	-7%	0.5	-1.2%	-9%	-1.4%[38.3 µM]	-0.1
CN(C)CCN(Cc1ccccc1)S(=O)(=O)c1ccc(-c2ccc(=O)[nH]n2)s1	18%	30%	-0.4	-17%	15%	-0.4%	-4.3
Cc1c(N=Cc2c(O)n(Cc3ccco3)c(=O)c3ccccc23)c(=O)n(-c2ccccc2)n1C	u	-29%	u	1.7%	-19%	0.8%[38.3 µM]	-0.8
CC[C@H](C)[C@@H](C(=O)N1CCNCC1)n1cc([C@@H](N)CC(C)C)nn1	11%	11%	-3.7	1.0%	8%	0.5%	0.1
Cc1noc(C)c1CCC(=O)N1CCCC(CO)(Cc2ccccc2)C1 (stereo unspecified)	-7%	5%	-3.7	0.1%	3%	-0.3%	-0.6
COc1ccc(CN2C(=O)c3ccccc3C2OC)cc1 (stereo unspecified)	7%	-54%[inhibitor]	0.1	1.6%	7%	-0.5%	2.2
CCOC(=O)c1sc(NC(=O)CSc2n[nH]c(-c3ccccc3)n2)c(C#N)c1C	7.1µM*	12%	9.1	125%	u	16µM*	0.3
Cc1ccc(F)c([C@H]2[C@H]3C=CC[C@@H](C)[C@@H]3C(=O)N2Cc2ccccc2)c1	-25%	x	x	-0.3%	-19%	0.0%	0.6
O=C1CCCC2=C1C(c1ccccc1)n1c(s/c(=C/c3cccc(F)c3)c1=O)=N2 (stereo unspecified)	-1%	0%	4.3	-2.2%	-4%	6.9%	-0.3
Cc1ccccc1NC(=S)N(CCN1CCCCCC1)Cc1cccs1	6%	-40%[inhibitor]	4.5	-1.8%	4%	2.7%	-4.0
CN(C(=O)c1cccc(NC(=O)Cc2ccc(NC(=O)C3CCN(C(=O)C4CCCCC4)CC3)cc2)c1)C1CCCC1	x	x	x	2.1%	5%	5.3%	2.6
Cc1nc2ccccn2c1C(=O)NNS(=O)(=O)c1ccc(C(C)(C)C)cc1	-1%	-3%	8.5	0.8%	u	1.9%	-1.4
O=c1c(Cl)c(N2CCN(c3ccc(F)cc3)CC2)cnn1-c1nc2ccccc2s1	17%	-17%	0.2	-0.9%	-14%	2.0%	1.5
CCOC(=O)N1CCN(C(c2ccc(C)cc2)c2sc3nc(C)nn3c2O)CC1 (stereo unspecified)	27%	-10%	0.0	-1.8%	1%	-0.3%	-3.0
CC(C(=O)Nc1ccc(S(=O)(=O)N2CCCC2)cc1)N1CCN(c2ccccc2O)CC1 (stereo unspecified)	x	-36%[inhibitor]	x	4.9%	u	0.3%	u
